Screens from PubChem BioAssay.
PrP 5UTR inh: inhibition of PrP 5' UTR reporter expression. cell-based PrP 5' UTR mRNA reporter, plate reader. inhibition, % (concentration not given with the values). 340,000 compounds, 0.35% hits;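 active means every replicate at 50% or more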;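 further: 0 = median of the neutral control wells; tested in H4 reporter cells; numbers are from one replicate; inactives centre near -14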
BJeLR lethal: MLPCN primary cell-based screen for lethality selective to Ras in HRASV12 cells; BJeLR (HRASV12) viability, CellTiter-Glo ATP luminescence, 48 h; reference of the scale not given here; inhibition, % (test concentration not listed); 300,000 compounds, 0.17% hits; AID 1554, 2009;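 active means replicate mean above 50%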;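 further: 50 nL library stock added to about 25 µL; numbers are from one replicate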
Sa ugtP lethal: growth inhibition of ugtP-null S. aureus, primary screen, RN4220 ugtP deletion, OD600; 16 h; some inactives read as strong as hits; 330,000 compounds, 0.54% hits; AID 1259309, 2017; growth inhibition, % (test concentration not listed);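 active means z-score under -3 and OD600 up to 0.15 on both plates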;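 further: plate controls were untreated wells for no effect and antibiotic for full effect; wells of about 80 µL received 100 nL stock; the first replicate is given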
Bead autofluor: compound fluorescence in toxin protease inhibitor counterscreen; compound autofluorescence counterscreen, microsphere flow cytometry; stronger effect = higher value; fluorescence intensity (no concentration beside the values); 360,000 compounds, 3.1% hits;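 active means at least 3 SD above the mean of all compounds, about 16000 in these data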;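 further: 100 nL of 1 mM stock went into each well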
Sa RN4220 lethal: growth inhibition of S. aureus RN4220, primary screen, OD600; 16 h; inhibition, % (concentration not given with the values); 330,000 compounds, 0.33% hits;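 active means z-score of -3 or lower and OD600 up to 0.18 on both plates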;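 further: plate controls were untreated cells for no effect and reference antibiotic for full effect; stock transfer was 100 nL into about 80 µL; one replicate is shown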
Mtb hypoxia inh: PubChem AID 1159583. M. tuberculosis hypoxia-regulated fluorescent reporter, fluorescence. fluorescence inhibition, % (no concentration beside the values). 300,000 compounds, 0.1% hits;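 active means 35 to 45% if threefold the growth effect, above 45% if 1.5-fold the growth effect; inactive means the rest, general growth blockers included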;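 further: wells of about 50 µL received 100 nL stock; 0% = vehicle wells and 100% = reference inhibitor wells; whole bacteria with a GFP reporter of the hypoxia response; strong numbers were not always called active; many hits fall short of the cut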
Mtb hypoxia inh growth: second read-out of Mtb hypoxia inh, no call of its own (marks repeat the call); growth inhibition, %; measured here: M. tuberculosis growth (absorbance);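 0% = vehicle and 100% = reference antibiotic; read after six days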
The depositor's hits bear a star; x = no result given.

compound,PrP 5UTR inh,BJeLR lethal,Sa ugtP lethal,Bead autofluor,Sa RN4220 lethal,Mtb hypoxia inh,Mtb hypoxia inh growth
COc1ccc(NC(=O)CSCC(=O)N(C)Cc2cccc(OC)c2OC)cc1,-20,-1,3,5729,-1.0,4,12
O=C(O)CSc1ncnc2sc3c(c12)CCCC3,-25,-3,19,4441,6.0,10,6
Cc1ccc(S(=O)(=O)N2CCN(C(=O)C3CCCCC3)CC2)cc1,-25,6,0,10346,6.0,11,5
O=C(c1nc2ccc(Cl)cn2c1CN1CCC(O)CC1)N1CCc2ccccc2C1,-8,-12,6,x,3.6,16,3
Cc1ccc(C=NNC(=O)C(C)Oc2cccc3ccccc23)o1 (stereo unspecified),x,x,4,x,4.9,2,-1
Cc1nc2ccc(NS(=O)(=O)c3ccc(F)cc3F)cc2s1,-8,x,10,x,5.2,6,1
CS(=O)(=O)N(CC(=O)N1CCCCC1)c1ccc2c(c1)OCO2,-20,-1,11,6076,5.4,10,11
Cc1nnc(C)c2c(C)n(C(C)c3ccccc3)c(C)c12 (stereo unspecified),0,8,-6,3434,10.0,-8,6
O=C(CSc1ccc(-c2ccccn2)nn1)N1CCCC1,-13,12,4,4029,0.8,2,8
CC(=O)c1cccc(NC(=O)C(C)OC(=O)c2ccc(-n3cnnn3)cc2)c1 (stereo unspecified),-21,x,6,6062,-0.6,-1,-3
CC(=O)N1CCc2[nH]c3ccc(C)cc3c2C1,-14,-2,x,4127,x,x,x
CN(C(=O)Cn1c(Cl)nc2c1c(=O)n(C)c(=O)n2C)C1CCS(=O)(=O)C1 (stereo unspecified),-17,-10,10,6237,0.6,8,-7
O=C1NC2(CCC3(CC2)OCCO3)NN1c1ccc(Cl)cc1,-18,-9,-5,4693,4.3,0,-2
O=C(NC1CCCCC1)C(c1ccccc1)N(C(=O)c1cccs1)c1ccc2c(c1)OCO2 (stereo unspecified),-4,4,-8,9215,-4.2,-1,8
C=C(C)CN(CC)C(=O)CN1C(=O)NC(C)(c2ccc3ccccc3c2)C1=O (stereo unspecified),-5,7,8,4022,1.3,9,1
Oc1ccc(C2N=C(c3ccccc3)NC(c3ccccc3)=N2)cc1,-8,x,-8,10069,-6.9,2,1
CCN(CC)CCCN1C(=O)C(=O)/C(=C(/O)c2ccc(Cl)cc2)C1c1ccccn1 (stereo unspecified),-14,0,-3,3559,0.4,x,x
COc1ccc(C2=NN(CN3C(=O)C(=O)c4ccccc43)C(c3cccc([N+](=O)[O-])c3)C2)cc1 (stereo unspecified),-28,-7,-14,5195,5.8,11,2
O=C(O)c1ccc(Cl)c(S(=O)(=O)NCc2ccco2)c1,-13,-8,5,2771,17,2,2
O=C(COC(=O)c1ccc(Cl)c(Cl)c1)NC1CCCC1,-6,-4,-1,3270,-1.6,2,-11
S=C(Nc1ccccc1Cl)N1CCCCCC1,-21,8,8,2123,2.8,3,16
O=C1COc2ccc(S(=O)(=O)N3CCN(c4ccccc4F)CC3)cc2N1,-14,1,4,4943,2.4,2,8
CCOC(=O)c1sc(NC(=O)COc2ncnc3ccccc23)c(C(=O)OCC)c1C,-11,2,4,2428,3.5,10,17
CC(C)(C)CC(=O)NC(=S)Nc1ccccc1C(F)(F)F,-2,-6,93*,24827*,5.2,-5,10
C=CCNC(=O)c1ccc2nc(Cc3ccc(OC)cc3)oc2c1,-81,-4,x,3798,x,x,x

One compound at a time, from the list above. Order of screens: PrP 5UTR inh	BJeLR lethal	Sa ugtP lethal	Bead autofluor	Sa RN4220 lethal	Mtb hypoxia inh	Mtb hypoxia inh growth
O=C(NC1CCCCC1)C(c1ccccc1)N(C(=O)c1cccs1)c1ccc2c(c1)OCO2 (stereo unspecified) is entered as -4	4	-8	9215	-4.2	-1	8
Cc1ccc(C=NNC(=O)C(C)Oc2cccc3ccccc23)o1 (stereo unspecified) is entered as x	x	4	x	4.9	2	-1
S=C(Nc1ccccc1Cl)N1CCCCCC1 is entered as -21	8	8	2123	2.8	3	16
CN(C(=O)Cn1c(Cl)nc2c1c(=O)n(C)c(=O)n2C)C1CCS(=O)(=O)C1 (stereo unspecified) is entered as -17	-10	10	6237	0.6	8	-7
O=C1COc2ccc(S(=O)(=O)N3CCN(c4ccccc4F)CC3)cc2N1 is entered as -14	1	4	4943	2.4	2	8

Carrying on.
compound,PrP 5UTR inh,BJeLR lethal,Sa ugtP lethal,Bead autofluor,Sa RN4220 lethal,Mtb hypoxia inh,Mtb hypoxia inh growth
Cc1cc(N2CCN(Cc3nc(-c4ccc(F)cc4)oc3C)CC2)cc(C)n1,-41,-3,2,2074,0.6,14,1
CC(C)Cn1nc(C(=O)Nc2cccc(S(=O)(=O)N3CCCC3)c2)c2ccccc2c1=O,9,x,5,2966,5.0,3,-3
CCOC(=O)C1CCN(C(=O)c2ccc(SC)cc2OC)CC1,8,-13,-1,4508,14,x,x
CC(=O)c1ccc2noc(-c3cccc(F)c3)c2c1,-3,-4,5,3858,7.9,0,4
CC(=O)Nc1ccc2c(c1)C(=Nc1ccccc1)c1ccccc1-2,-51,x,1,4040,-3.4,15,15
Cc1cc(OC(=O)N2CCOCC2)cc(C)c1Cl,-10,8,9,2857,6.9,x,x
Cc1nn(-c2ncc(C(F)(F)F)cc2Cl)c(=O)n1-c1cccc(Cl)c1,-21,4,5,3815,-2.1,x,x
CCN1C(=O)C(CC(=O)Nc2ccccc2)N(Cc2ccccn2)C1=S (stereo unspecified),3,16,8,x,3.2,8,-5
Cc1cccc2sc(N(CCCN(C)C)C(=O)c3ccc(C(=O)c4ccccc4)cc3)nc12,-19,4,-19,6103,0.6,1,5
Cc1ccc[n+](CC(=O)Nc2cccc([N+](=O)[O-])c2)c1,-8,-5,2,2573,2.2,11,13
COc1ccc(/C=N/n2c(C)cc(C)c(C(N)=O)c2=O)cc1,-19,-1,x,12480,x,x,x
CCOC(=O)[C@@H]1[C@H]2COc3ccccc3[C@@H]2N2C(=O)N(c3ccc(OC)cc3)C(=O)[C@@]12C,-20,13,x,4330,x,x,x
CCC(=O)NCc1cc(-c2nn(C)c(=O)c3ccccc23)ccc1C,0,8,9,6485,5.8,9,7
O=C(N/N=C/c1cccc(OC(=O)c2ccco2)c1)c1ccc(F)cc1,-32,8,x,8987,x,x,x
C#CCOCCOCCOCCNc1nc(N2CCN(C(=O)C(Cc3cc4ccccc4[nH]3)n3cc(C(N)C(C)CC)nn3)CC2)nc(N2CCN(C(=O)C(C(C)CC)n3cc(C(N)CO)nn3)CC2)n1 (stereo unspecified),x,x,0,x,-2.9,0,16
CCCOc1ccc(C2NC(=O)NC(c3ccccc3)=C2C(C)=O)cc1OCC (stereo unspecified),-18,6,6,16768*,0.6,6,5
COc1ccc(Nc2ncnc3ccc(C)cc23)cc1,-12,0,-2,3536,4.1,8,8
CCN(C[C@H]1N[C@@](C)(C(=O)OC)[C@H]2C(=O)N(Cc3ccccc3)C(=O)[C@@H]12)S(=O)(=O)c1ccc(C)cc1,-16,x,7,3299,0.2,2,1
Cc1nc2ncnn2c(C)c1CCC(=O)NCc1ccccc1,-22,2,-2,20501*,-2.2,1,6
CCC(CC)NCc1ccc2c(c1)c1ccccc1n2CC,-7,2,x,4455,x,x,x
O=C(NCCC(=O)N1CCN(c2ccccn2)CC1)c1ccc(Br)cc1,-13,-9,4,7258,4.7,8,8
CSCCC(NC(=O)CCNC(=O)c1ccccc1Cl)c1nc2ccccc2[nH]1 (stereo unspecified),-2,x,3,8778,1.7,-1,6
CS(=O)(=O)N1CC(C(=O)NC2CCCC2)Oc2ccc(Cl)cc21 (stereo unspecified),-6,11,-4,3993,0.8,7,18
COc1cccc(CN2CCN(c3nc4nonc4nc3N3CCCCC3)CC2=O)c1,-27,-8,-9,4667,0.4,-6,7
CCCN(C(=O)c1c(-c2ccccc2)noc1C)c1c(N)n(Cc2ccccc2)c(=O)[nH]c1=O,-2,x,1,2925,3.7,-4,-5

Fetched one by one from the list above:
compound,PrP 5UTR inh,BJeLR lethal,Sa ugtP lethal,Bead autofluor,Sa RN4220 lethal,Mtb hypoxia inh,Mtb hypoxia inh growth
C=C(C)CN(CC)C(=O)CN1C(=O)NC(C)(c2ccc3ccccc3c2)C1=O (stereo unspecified),-5,7,8,4022,1.3,9,1
CSCCC(NC(=O)CCNC(=O)c1ccccc1Cl)c1nc2ccccc2[nH]1 (stereo unspecified),-2,x,3,8778,1.7,-1,6
O=C(O)CSc1ncnc2sc3c(c12)CCCC3,-25,-3,19,4441,6.0,10,6

(cont.)
compound,PrP 5UTR inh,BJeLR lethal,Sa ugtP lethal,Bead autofluor,Sa RN4220 lethal,Mtb hypoxia inh,Mtb hypoxia inh growth
Cc1ccc2c(CC(=O)N3CCN(S(=O)(=O)c4cccs4)CC3)coc2c1,-20,-2,-3,4231,6.7,x,x
O=C(CNC(=O)c1ccc2ccccc2c1)Nc1ncccc1O,x,x,-3,6059,6.8,9,7
CCN(CC)c1ccc(/C=C2/C(=O)NC(=O)N(CC3CCCO3)C2=O)cc1 (stereo unspecified),-22,-3,3,4463,8.2,x,x
CN(Cc1cc2cc(F)ccc2[nH]1)Cc1nc(-c2cnccn2)no1,-10,4,4,4265,5.5,16,11
CCOc1ccc(S(=O)(=O)N(CC)CC(=O)NCc2ccncc2)cc1,-28,3,4,4703,2.0,16,-1
COc1ccc(CCNC(=O)Cn2nnc(-c3cccs3)n2)cc1OC,-65,2,-1,7266,1.0,5,5
CC1(C)CC(=O)C=C(NCCN2CCN(C(=O)Cc3ccc(Cl)cc3)CC2)C1,-19,-11,0,2794,4.9,x,x
COc1ccc(NC(=O)N(C)CC2Oc3ccc(NC(=O)CCC(F)(F)F)cc3C(=O)N(C(C)CO)CC2C)cc1 (stereo unspecified),x,x,-5,x,4.1,8,6
CC(C)(C)N(Cc1ccccc1)C(=O)c1ccc2c(c1)OCCO2,-2,-7,-2,3301,3.0,-6,7
CCOc1ccc(OCC)c(S(=O)(=O)NNC(=O)c2c(C)nc3ccccn23)c1,-2,15,10,7473,1.5,2,-4
N#Cc1cccc(NC(=O)COC(=O)CCc2ccc(S(=O)(=O)N3CCOCC3)cc2)c1,-11,x,1,3894,0.7,5,6
COc1ccc(NS(=O)(=O)c2cccc(NC(=O)C3=NN(c4ccccc4)C(=O)CC3)c2)cc1,6,7,10,5340,1.8,5,11
FC(F)(F)C(=NP(=S)(N1CCOCC1)N1CCOCC1)N1CCOCC1,x,x,1,x,1.8,3,7
NN=C(c1ccccc1)c1cc(Cl)ccc1N,x,x,13,x,5.1,-3,6
O=C1C(=NO)CC(c2ccccc2)N1c1ccccc1 (stereo unspecified),-18,x,4,4172,1.3,6,3
Nc1cccnc1Oc1ccc(F)cc1F,-13,-1,9,5348,2.6,-5,-4
